Compound activity (PubChem BioAssay)
Rango-impB inh: prevents formation of the Rango-importin beta complex; Rango CFP/YFP FRET sensor + importin beta, 45 min; Potency, µM (titrated, usually from 92.2 µM), without a hit: at the highest dose inhibition of complex formation; 0.031% of 340,000 active; active = rising FRET ratio curve, often small or poorly fitted; inconclusive = mostly compound fluorescence or quenching in the first reads; inactive = flat curves in all reads;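 note: potency is the fitted concentration of half-maximal effect; 0% = DMSO wells and 100% = buffer wells lacking importin beta; nearly all actives have a fitted effect of over 15% in size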
Target sequence (Q14974 whole entry, looked up): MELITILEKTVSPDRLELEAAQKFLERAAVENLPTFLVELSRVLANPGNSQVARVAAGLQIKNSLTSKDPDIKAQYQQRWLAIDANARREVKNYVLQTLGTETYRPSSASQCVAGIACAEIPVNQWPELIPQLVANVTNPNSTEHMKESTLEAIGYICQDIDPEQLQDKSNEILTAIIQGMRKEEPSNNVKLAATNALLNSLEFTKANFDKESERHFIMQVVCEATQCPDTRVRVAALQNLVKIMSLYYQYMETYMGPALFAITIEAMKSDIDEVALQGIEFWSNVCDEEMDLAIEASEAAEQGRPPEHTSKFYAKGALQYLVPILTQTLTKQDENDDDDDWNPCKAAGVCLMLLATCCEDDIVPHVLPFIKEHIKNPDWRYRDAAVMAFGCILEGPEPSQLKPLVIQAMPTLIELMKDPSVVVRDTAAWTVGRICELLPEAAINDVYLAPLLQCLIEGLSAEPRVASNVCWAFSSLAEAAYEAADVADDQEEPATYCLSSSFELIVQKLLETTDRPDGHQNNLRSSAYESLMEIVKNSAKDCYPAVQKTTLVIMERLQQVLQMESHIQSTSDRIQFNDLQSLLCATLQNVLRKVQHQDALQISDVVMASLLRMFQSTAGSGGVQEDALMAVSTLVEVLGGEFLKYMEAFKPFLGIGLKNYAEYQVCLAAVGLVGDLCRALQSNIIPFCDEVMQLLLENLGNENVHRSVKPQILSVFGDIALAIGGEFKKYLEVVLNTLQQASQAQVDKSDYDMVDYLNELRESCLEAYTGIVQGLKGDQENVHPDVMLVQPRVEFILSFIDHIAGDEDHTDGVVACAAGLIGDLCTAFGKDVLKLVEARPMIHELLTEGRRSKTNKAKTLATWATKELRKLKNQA
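FRET biosensor Rango (snurportin 1 IBB between N-terminal EYFP and C-terminal Cerulean), 50 nM in PBS/1 mM DTT/0.02% Tween-20/0.1% BSA, preincubated 5 min RT with compound; 0.125 microM importin beta added, 45 min RT, CFP/YFP FRET ratio read.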
miR-21 reporter: raises the signal of a miR-21 reporter | 340,000 tested, under 10 active | Potency, µM (series often up to 38.3 µM), without a hit: top-dose reporter change, positive = more light | HeLa miR-21 FLuc reporter, luciferase, 48 h; active = well fitted rising curve with a large enough effect; inconclusive = small, poorly fitted or top-dose-only effect; inactive = no such curve, though single readings can be large or run the other way;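 note: % of control where 0% means no effect; miR-21 action dims this reporter so a rising signal means less miR-21 action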
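Using DMEM plus 10% FBS, HeLa miR-21-FLuc cells are incubated with test compounds (final up to about 40uM) for 48 hours; firefly luciferase signal is then imaged following reagent-mediated lysis.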
Rango dissoc inh: inhibition of RanGTP-driven Rango-importin beta dissociation; O95149+P62826; 0.071% of 340,000 active; Potency, µM (doses to about 46.1 µM), without a hit: top-dose activity change, negative = inhibition; Biochemical FRET Rango-importin beta, RanGTP-induced dissociation; active means falling FRET ratio curve, often poorly fitted, with flat reads before Ran was added; inconclusive means other falling curves, or compound fluorescence or quenching; inactive means flat or rising ratio curve;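 note: potency is the fitted concentration of half-maximal effect; % of control where 0% means no effect; nearly all actives have a fitted effect of over 45% in size; -100% = wells without RanGTP and RCC1; the record marks most hits as doubtful in a second field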
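Recombinant Rango FRET biosensor (EYFP–snurportin 1 IBB–cerulean CFP10) at 0.1 uM premixed with 0.25 uM importin beta in PBS, 1 mM DTT, 0.02% Tween-20, 0.1% BSA. Compound added 5 min; RanGTP-RCC1 (0.6 uM Ran, 2 mM GTP, 0.2 uM RCC1) then triggers release, read at 45 min.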
GLA inh pH 4.5: alpha-galactosidase A (human) inhibition, pH 4.5 | P06280 | purified enzyme, 4-MU-alpha-Gal fluorescence, pH 4.5 | activity change, negative = inhibition, % at 105 µM | 230,000 tested, under 10 active; inconclusive = small, poorly fitted or top-dose-only inhibition, or a rising curve; inactive = flat fitted curve, though single readings scatter; no compound was filed as active;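 note: 0% = full activity with enzyme and -100% = basal without enzyme; dose as in the result columns while the protocol names 77 µM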
* = called active by the depositor.

`COc1ccccc1NC(=O)CCCc1nc(-c2ccc(OC)c(OC)c2)no1` gave Rango-impB inh 0.5%, miR-21 reporter -2%, Rango dissoc inh -15% and GLA inh pH 4.5 -8.
Screening CCOC(=O)c1ccccc1NC(=O)CSc1ccc(-c2cccnc2)nn1 returned Rango-impB inh -1.6%, miR-21 reporter -7%, Rango dissoc inh -9% and GLA inh pH 4.5 -7.
For Cc1ccc(-n2c(C)nc3c(cnn3-c3ccc(C)c(C)c3)c2=O)cc1C the results were Rango-impB inh -3.9%, miR-21 reporter -10%, Rango dissoc inh inconclusive and GLA inh pH 4.5 -2.
`O=C(c1cnsn1)N1CCN(c2ccccc2)CC1` gave Rango-impB inh 3.4%, miR-21 reporter -12%, Rango dissoc inh -4% and GLA inh pH 4.5 1.
Screening COc1ccc([N+](=O)[O-])cc1NC(=O)c1ccc(N(Cc2ccccc2C)S(C)(=O)=O)cc1 returned Rango-impB inh -0.3%, miR-21 reporter -2%, Rango dissoc inh -16% and GLA inh pH 4.5 -2.
For CCc1ccccc1NC(=O)C1CCN(S(=O)(=O)c2ccc3c(c2)N(C(C)=O)CCO3)CC1 the results were Rango-impB inh -1.9%, miR-21 reporter 1% and Rango dissoc inh -10%.
For CC(OC(=O)C1=COCCO1)C(=O)Nc1cc(S(=O)(=O)N2CCCCC2)ccc1Cl (stereo not given) the results were Rango-impB inh -8.1%, miR-21 reporter 1%, Rango dissoc inh -6% and GLA inh pH 4.5 4.
For Cc1ccc(C2C(C#N)=C(N)SC(N)=C2C#N)cc1 the results were Rango-impB inh inconclusive, miR-21 reporter -12%, Rango dissoc inh inconclusive and GLA inh pH 4.5 2.
For OCC[C@H]1C[C@@H](O)[C@H](O)[C@]2(OCc3ccccc32)O1 the results were Rango-impB inh -0.1% and Rango dissoc inh -15%.
NC(=O)C1CCN(C(=O)CCn2c(=O)oc3ccccc32)CC1 was read as Rango-impB inh 6.4% and Rango dissoc inh 14%.
`COC(=O)c1[nH]c2cc(C)ccc2c1NC(=O)CN1CCc2cc(OC)c(OC)cc2C1` gave Rango-impB inh 0.7%, miR-21 reporter 7%, Rango dissoc inh -5% and GLA inh pH 4.5 -5.
COc1ccc(-c2nc(CN3CCC(C(=O)N4CCOCC4)CC3)c(C)o2)cc1OC was read as Rango-impB inh -1.7%, miR-21 reporter -4% and Rango dissoc inh 0%.
O=C(NCCCn1ccnc1)/C(=C\c1ccccc1F)NC(=O)c1ccccc1 was read as Rango-impB inh -0.6%, miR-21 reporter 6% and Rango dissoc inh -4%.
Screening CCN(CC)C(=O)[C@H]1CC(CC(=O)NCc2cccc(C(F)(F)F)c2)C(=O)N2CCc3c([nH]c4ccc(OC)cc34)[C@]12C (stereo not given in full) returned Rango-impB inh 5.0% and Rango dissoc inh -11%.
For COc1ccc(N=C2S/C(=C\c3cc(C)n(C)c3C)C(=O)N2C)cc1 the results were Rango-impB inh -3.6%, miR-21 reporter -19%, Rango dissoc inh -27% and GLA inh pH 4.5 -9.
`NC(=O)Cn1nc2sc3ccccc3n2c(=O)c1=O` gave miR-21 reporter -1% and GLA inh pH 4.5 5.
Screening COc1ccc(C(=O)NCCCN2CCN(CCCNC(=O)c3ccc(OC)c(OC)c3)CC2)cc1OC returned Rango-impB inh 0.6% and Rango dissoc inh 30%.
For CN(Cc1ccccc1Cl)C(=O)CNC(=O)C12CC3CC(CC(C3)C1)C2 the results were Rango-impB inh -3.7% and Rango dissoc inh -7%.
Screening O=C(O)C1=C(OCc2ccccc2)C(=O)NCC1 returned Rango-impB inh 0.0%, miR-21 reporter -2%, Rango dissoc inh -9% and GLA inh pH 4.5 -9.
Screening Cc1cc(C)cc(NS(=O)(=O)c2ccc3[nH]cc(C(=O)NCc4ccco4)c(=O)c3c2)c1 returned Rango-impB inh inconclusive, miR-21 reporter inconclusive, Rango dissoc inh -1% and GLA inh pH 4.5 1.
Screening C=CCSc1nnc2nc3c(nn12)c1cc(C)ccc1n3CC=C returned Rango-impB inh -0.1%, miR-21 reporter -15%, Rango dissoc inh -1% and GLA inh pH 4.5 7.
Screening N#CCC(=O)N/N=C/c1cn(Cc2ccc(Cl)cc2Cl)c2ccccc12 returned Rango-impB inh -1.3%, miR-21 reporter 1%, Rango dissoc inh 9% and GLA inh pH 4.5 -17.
Screening COc1cccc(NC(=O)Cn2c(-c3cncs3)nc3ccccc32)c1 returned Rango-impB inh -1.1%, miR-21 reporter -2%, Rango dissoc inh 15% and GLA inh pH 4.5 -3.
For COc1ccc(-c2cn3c(C)c(C(=O)N4CCN(c5ccccc5F)CC4)sc3n2)cc1 the results were Rango-impB inh inconclusive, miR-21 reporter 18% and Rango dissoc inh -17%.
Screening CS(=O)(=O)c1ccc(C(=O)Nc2ccccc2Cl)cc1 returned Rango-impB inh 0.1%, miR-21 reporter -17%, Rango dissoc inh -6% and GLA inh pH 4.5 -7.
Screening CC(C(=O)N(C)Cc1cccc(F)c1)N1CCN(S(=O)(=O)c2ccc3c(c2)OCCCO3)CC1 (stereo not given) returned Rango-impB inh 0.4% and Rango dissoc inh -25%.
Screening O=C(NNC(=O)c1ccco1)c1cccc([N+](=O)[O-])c1 returned Rango-impB inh 0.9%, miR-21 reporter -8%, Rango dissoc inh 14% and GLA inh pH 4.5 7.
`Cc1ccc(Nc2nc(CSc3nnnn3C)cs2)cc1` gave Rango-impB inh 4.2%, miR-21 reporter -59%, Rango dissoc inh -14% and GLA inh pH 4.5 -1.
`C/C(=N\OCC(=O)Nc1ccccc1Br)c1cccs1` gave Rango-impB inh 0.8%, miR-21 reporter -38%, Rango dissoc inh 7% and GLA inh pH 4.5 2.
CC1c2cc3c(cc2CCN1C(=O)c1ccc(Cl)cc1)OCCCO3 (stereo not given) was read as Rango-impB inh -0.2%, miR-21 reporter 12% and Rango dissoc inh 1%.
For O=C(NCc1cccs1)c1cc2c(s1)-c1ccccc1OC2 the results were Rango-impB inh inconclusive, miR-21 reporter -41%, Rango dissoc inh -5% and GLA inh pH 4.5 inconclusive.
`Cc1ccccc1OCC(=O)OCC(=O)Nc1ccc(Cl)cn1` gave Rango-impB inh 0.9% and Rango dissoc inh -6%.
N/C(=N\N=C\c1ccc(O)c(O)c1)c1nonc1N was read as Rango-impB inh -1.5%, miR-21 reporter -92%, Rango dissoc inh 2% and GLA inh pH 4.5 -7.
`O=C(CNCc1ccco1)Nc1cc(S(=O)(=O)N2CCOCC2)ccc1N1CCCC1` gave Rango-impB inh -0.6%, miR-21 reporter 0%, Rango dissoc inh 1% and GLA inh pH 4.5 -2.
O=C(CSc1ncnc2[nH]ncc12)Nc1cccc(Oc2ccccc2)c1 was read as Rango-impB inh 3.3%, miR-21 reporter 3%, Rango dissoc inh -17% and GLA inh pH 4.5 -5.
For O=C(CN1CCc2ccccc2C1)Nc1cccc(S(=O)(=O)N2CCOCC2)c1 the results were Rango-impB inh 0.1% and Rango dissoc inh -6%.
Screening Cc1ccc(OCC(=O)Nc2ccc(S(=O)(=O)N3CCOCC3)cc2)c(C)c1 returned Rango-impB inh -1.8%, miR-21 reporter 0% and Rango dissoc inh 0%.
`COc1ccc(N(CC(=O)Nc2cccnc2)S(=O)(=O)c2ccccc2)cc1OC` gave Rango-impB inh -1.0%, miR-21 reporter -2% and Rango dissoc inh -3%.
O=C(Nc1ccncc1)c1ccc([N+](=O)[O-])cc1Cl was read as Rango-impB inh -1.2%, miR-21 reporter 16% and Rango dissoc inh 7%.
For COc1ccc(NC(=O)CCc2nc(-c3ccccc3F)no2)cc1 the results were Rango-impB inh 7.9%, miR-21 reporter 0%, Rango dissoc inh 2% and GLA inh pH 4.5 -7.
CCN(CC)C(=O)CSc1ncnc2c1nnn2-c1ccc(F)cc1 was read as Rango-impB inh -0.1%, miR-21 reporter -4%, Rango dissoc inh 0% and GLA inh pH 4.5 -3.
Screening Cc1ccc(C(=O)NN(CCC#N)C2=NS(=O)(=O)c3ccccc32)cc1 returned Rango-impB inh 3.6%, miR-21 reporter 0%, Rango dissoc inh 2% and GLA inh pH 4.5 6.
For CC(=O)N1c2ccccc2S(=O)(=O)c2c1ccc1ccccc21 the results were Rango-impB inh 3.6% and Rango dissoc inh 2%.
NC(=S)NNC(=O)C12CC3CC(CC(C3)C1)C2 was read as Rango-impB inh -3.0%, miR-21 reporter -3%, Rango dissoc inh -7% and GLA inh pH 4.5 -2.
COC(=O)C1=C(C)N(C)C(=O)NC1c1cc2c(cc1[N+](=O)[O-])OCO2 (stereo not given) was read as Rango-impB inh 4.2%, miR-21 reporter 4%, Rango dissoc inh 2% and GLA inh pH 4.5 -1.
Screening O=C(NC(Cc1c[nH]c2ccccc12)c1nnc2n1CCCCC2)c1ccccc1Cl (stereo not given) returned Rango-impB inh 0.2%, miR-21 reporter -1%, Rango dissoc inh -16% and GLA inh pH 4.5 -14.
CN(CC(=O)Nc1nccs1)S(=O)(=O)c1ccc(F)cc1 was read as Rango-impB inh -3.3%, miR-21 reporter -8%, Rango dissoc inh 5% and GLA inh pH 4.5 -4.
For Cc1ccc(OCCC(=O)OCC(=O)Nc2ccc3c(c2)OCCO3)cc1 the results were Rango-impB inh 0.2% and Rango dissoc inh -4%.
For CCN(CCNCC(O)COc1ccccc1C(C)C)c1cccc(C)c1 (stereo not given) the results were Rango-impB inh -4.0%, miR-21 reporter inconclusive and Rango dissoc inh -9%.
`CSc1nnc(NC(=O)c2nc(S(=O)(=O)Cc3ccccc3F)ncc2Cl)s1` gave Rango-impB inh 1.2%, miR-21 reporter inconclusive and Rango dissoc inh -1%.
CC1CCc2sc(C(=O)OCC(=O)NCc3ccccc3)cc2C1 (stereo not given) was read as Rango-impB inh 3.1%, miR-21 reporter 12%, Rango dissoc inh 1% and GLA inh pH 4.5 1.
Screening CC(C)CC(=O)Nc1ccc(N2CCN(C(=O)c3cccs3)CC2)cc1 returned Rango-impB inh -0.8%, miR-21 reporter 15% and Rango dissoc inh 12%.
`O=c1c2ccccc2c2ccccc2c(=O)n1-c1ccccc1` gave Rango-impB inh 0.3%, miR-21 reporter -2%, Rango dissoc inh -4% and GLA inh pH 4.5 9.
`COc1ccc(C(CNC(=O)c2c(C)nn(Cc3ccc(C)cc3)c2Cl)N2CCOCC2)cc1` (stereo not given) gave Rango-impB inh 0.3% and Rango dissoc inh -11%.
`Cc1ccc(C(CNC(=O)Nc2cccc(C)c2)N2CCN(C)CC2)cc1` (stereo not given) gave Rango-impB inh -1.1%, miR-21 reporter -7% and Rango dissoc inh 0%.
`Cc1nsc2c1ccc1ccccc12` gave Rango-impB inh 1.0%, miR-21 reporter -5%, Rango dissoc inh 30% and GLA inh pH 4.5 6.
CCNc1ccc(S(=O)(=O)N(C)C)cc1NCC(=O)Nc1ccc(F)c(Cl)c1 was read as Rango-impB inh 0.9%, miR-21 reporter 23%, Rango dissoc inh 1% and GLA inh pH 4.5 -23.
For Cc1ccc(OCc2nc(C#N)c(N3CCCC3)o2)cc1 the results were Rango-impB inh 6.1%, miR-21 reporter -4%, Rango dissoc inh 23% and GLA inh pH 4.5 -9.
For COc1ccc(C(=O)NNc2ccccc2)cc1OC the results were Rango-impB inh 1.6%, miR-21 reporter 5%, Rango dissoc inh 1% and GLA inh pH 4.5 -3.
`O=C1NC(=Nc2ccccc2)S/C1=C\c1ccccc1` gave Rango-impB inh -3.9%, miR-21 reporter -16% and Rango dissoc inh 1%.
`CCCC(=O)OCC(=O)Nc1ccc2[nH]c(=O)[nH]c2c1` gave Rango-impB inh -1.8%, miR-21 reporter -5%, Rango dissoc inh -8% and GLA inh pH 4.5 7.
For CC(C)n1cc(CN2CCC(n3nccc3NC(=O)C3CCCC3)CC2)cn1 the results were Rango-impB inh -3.0%, miR-21 reporter 0% and Rango dissoc inh -12%.

Three compounds out of the list, arranged by molecular weight, descending.
`CSc1nnc(NC(=O)c2nc(S(=O)(=O)Cc3ccccc3F)ncc2Cl)s1` gave Rango-impB inh 1.2%, miR-21 reporter inconclusive and Rango dissoc inh -1%.
For Cc1ccc(OCCC(=O)OCC(=O)Nc2ccc3c(c2)OCCO3)cc1 the results were Rango-impB inh 0.2% and Rango dissoc inh -4%.
COC(=O)C1=C(C)N(C)C(=O)NC1c1cc2c(cc1[N+](=O)[O-])OCO2 (stereo not given) was read as Rango-impB inh 4.2%, miR-21 reporter 4%, Rango dissoc inh 2% and GLA inh pH 4.5 -1.

This is a subset; rates above refer to the full screens.
